Source: PubChem BioAssay
MLL AF4-AF9 inh = inhibitors of AF4 peptide binding to AF9, primary screen, biochemical, AlphaScreen, biotin-AF4 peptide, FLAG-AF9, single point; hit rate 0.47% among 350,000; inhibition, % at 10 µM; AID 651704, 2012; Protein AF-9 (Homo sapiens), P42568;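 active = every replicate reaching a set inhibition limit, whatever the replicate mean, cut at about 25% in these data; inconclusive = mean inhibition reaches that limit but some replicates miss it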;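 note: 0% = plate neutral control median and 100% = total signal loss; the record names both 10 and 1 µM as test concentration; the first replicate is given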
Target sequence (P42568 whole entry, looked up): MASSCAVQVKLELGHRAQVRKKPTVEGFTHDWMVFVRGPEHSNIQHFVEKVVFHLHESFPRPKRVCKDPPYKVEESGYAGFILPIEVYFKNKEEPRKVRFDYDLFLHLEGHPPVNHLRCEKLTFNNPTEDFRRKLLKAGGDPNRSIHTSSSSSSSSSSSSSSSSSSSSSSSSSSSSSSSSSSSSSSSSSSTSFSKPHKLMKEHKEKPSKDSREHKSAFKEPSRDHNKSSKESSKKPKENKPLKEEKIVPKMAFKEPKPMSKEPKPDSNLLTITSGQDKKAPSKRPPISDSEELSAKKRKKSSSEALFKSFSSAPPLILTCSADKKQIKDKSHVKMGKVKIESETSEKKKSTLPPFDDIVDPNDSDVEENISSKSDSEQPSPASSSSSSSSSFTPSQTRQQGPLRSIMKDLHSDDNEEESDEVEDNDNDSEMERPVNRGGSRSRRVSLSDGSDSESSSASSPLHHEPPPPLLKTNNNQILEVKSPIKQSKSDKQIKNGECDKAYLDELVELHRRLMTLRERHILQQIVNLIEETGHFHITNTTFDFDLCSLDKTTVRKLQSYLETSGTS
ALR H2O2 inh = inhibitors of human ALR sulfhydryl oxidase, primary screen, biochemical, H2O2 detection, HRP-luminol luminescence, single point; FAD-linked sulfhydryl oxidase ALR (Homo sapiens), P55789; purified ALR, DTT oxidation; inhibition, % (concentration not given with the values); hit rate 3.8% among 290,000;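 active = mean and each replicate at 75% or more; inconclusive = only one of the two met; inactive = neither met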;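 note: stock transfer was 7.5 nL into about 7.5 µL; 0% = neutral wells and 100% = wells with inactivated enzyme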
Target sequence (P55789 whole entry, looked up): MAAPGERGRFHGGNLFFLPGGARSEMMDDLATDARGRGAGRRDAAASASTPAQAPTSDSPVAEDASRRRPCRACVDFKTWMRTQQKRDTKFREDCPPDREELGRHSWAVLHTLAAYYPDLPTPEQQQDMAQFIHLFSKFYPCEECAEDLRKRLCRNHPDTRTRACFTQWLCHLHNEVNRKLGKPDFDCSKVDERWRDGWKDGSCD
Calb FLC = C. albicans growth inhibition with fluconazole, primary screen, CaCi-2 strain, Alamar Blue fluorescence. C. albicans CaCi-2 (fluconazole-resistant clinical isolate) + fluconazole, 48 h. growth inhibition, % (concentration not given with the values). hit rate 0.57% among 300,000;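 active = most replicates above 75%; inconclusive = exactly half above 75%; inactive = most below 75%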;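 note: all wells also contain fluconazole at 8 µg/ml as a sub-toxic cotreatment; 0% = median of DMSO wells and 100% = median of geldanamycin control wells; wells of about 8 µL received 7.5 nL stock; the first replicate is given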
Beta apoptosis = inhibitors of cytokine-induced beta cell apoptosis, primary screen, luminescence. INS-1E cytokine-induced death, ATP luminescence, 48 h; percent of positive-control rescue, neutral wells zero. protection from apoptosis, % (no concentration beside the values). hit rate 0.8% among 300,000;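 active = all replicates at 75% or more, or half of them and the mean; inconclusive = half reach 75% but not the mean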;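 note: 0% = cytokine-treated negative control wells and 100% = positive control rescue; higher means more ATP so stronger rescue from cytokine killing; wells of about 40 µL received 100 nL stock; the first replicate is given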
T cruzi inh = inhibitors of intracellular T. cruzi growth, primary screen, luminescence, NIH3T3 host cells; hit rate 1.4% among 300,000; AID 1885, 2009; inhibition, % (concentration not given with the values); T. cruzi beta-gal in NIH3T3, 90 h;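 active = mean inhibition across valid replicates above about 55%, limit read from the data; inconclusive = mean below that limit but half or more replicates reach it; inactive = mean below it, under half of replicates reach it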;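 note: signal also drops with host cell toxicity which is not excluded here; 0% = plate median of DMSO wells and 100% = zero luminescence signal; higher percent means less beta-gal luminescence so fewer parasites; stock transfer was 50 nL into about 50 µL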
rRNA inh HTS = reduced GFP signal of wild-type E. coli, primary screen, bacterial rRNA inhibitor project, GFP/RFP fluorescence, OD600, single point | hit rate 1.6% among 350,000 | GFP signal change (wild-type ribosome), % (test concentration not listed) | E. coli WT GFP vs humanized-ribosome RFP mutants, 24 h; hits give low values; DMSO median 0, no signal -100;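 active = significant combined selectivity score with lowered wild-type GFP, culture density cut under 30%, mutant RFP and density less affected; inactive = any of these conditions unmet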; note: one replicate is shown; some compounds called inactive have numbers as strong as hits
RanGTP-Impb inh = inhibitors of RanGTP-importin-beta interaction, primary screen, biochemical, FRET, CFP-Ran, YFP-importin-beta, homogeneous | AID 2216, 2009 | hit rate 1.1% among 300,000 | inhibition, % (no concentration beside the values) | Ran GTPase (GTP-bound) - importin-beta complex | cell-free CFP-Ran/YFP-importin-beta FRET ratio;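 active = most replicates above 15%; inconclusive = exactly half above 15%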;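 note: 0% = DMSO wells and 100% = Ran loaded with GDP instead of GTP; wells of about 40 µL received 100 nL stock; the first replicate is given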
FGF22 binding = binders of human FGF22 protein, primary screen, FGF22 synaptogenesis inhibitor project, biophysical, thermal shift, single point; Fibroblast growth factor 22 (Homo sapiens), Q9HCT0; recombinant FGF22 thermal shift, SYPRO orange fluorescence; percent of sucrose octasulfate shift, DMSO zero; calls only at 9.99 µM; hit rate 1.5% among 340,000; AID 651658, 2012;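 active = melting point raised past a set limit in the mean and every replicate; inconclusive = no clear call; three in four hits are not shown here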
Target sequence (Q9HCT0 whole entry, looked up): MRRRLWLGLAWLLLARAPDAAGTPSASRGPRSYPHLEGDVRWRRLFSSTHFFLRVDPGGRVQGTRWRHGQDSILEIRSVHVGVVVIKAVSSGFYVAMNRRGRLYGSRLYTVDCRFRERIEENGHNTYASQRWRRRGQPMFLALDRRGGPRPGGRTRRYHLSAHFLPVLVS
rRNA inh HTS OD600 = second read-out of rRNA inh HTS, no call of its own (marks repeat the call); OD600 change, %; measured here: OD600 growth;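 optical density of the mix in the first replicate; 0 = DMSO median and -100 = no signal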
rRNA inh HTS RFP = second read-out of rRNA inh HTS, no call of its own (marks repeat the call); RFP signal change, %; measured here: RFP humanized mutant strains;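 first replicate; 0 = DMSO median and -100 = no signal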
* = called active by the depositor; i = inactive; ? = inconclusive; · = not tested or not shown. The list is partial; count on the stated rates, not on these rows.

SMILES	MLL AF4-AF9 inh	ALR H2O2 inh	Calb FLC	Beta apoptosis	T cruzi inh	rRNA inh HTS	rRNA inh HTS OD600	rRNA inh HTS RFP	RanGTP-Impb inh	FGF22 binding
CC(C)CC(OC(=O)c1cccs1)C(=O)NCc1cccs1 (centres undefined)	·	5	-13	-4	-4	·	·	·	0.0	·
COc1ccc(S(=O)(=O)N2CCC(C(=O)NCCC(=O)NCc3ccncc3)CC2)cc1	-1.9	-4	-4	-4	-21	6	5	-3.1	0.8	i
CC1CCCN(C(=O)CCS(=O)(=O)Cc2ccccc2)C1 (centres undefined)	·	13	6	-10	-12	·	·	·	?	·
CCC1NC(=S)NC(C)=C1C(=O)c1ccccc1 (centres undefined)	-1.1	-6	-7	3	-16	2	-2	-4.2	-2.4	i
CC(=O)C1=C(C)Nc2ncnn2C1c1ccccc1 (centres undefined)	-3.1	5	-3	0	-21	9	9	0.1	0.7	i
N#CC1=C(N)N(c2ccccc2)C(c2ccco2)C1(C#N)C#N (centres undefined)	·	94*	7	7	12	·	·	·	5.6	·
CCCC(=O)Nc1c2c(nn1-c1ccc(C)cc1C)CSC2	·	5	9	-7	10	·	·	·	-6.4	·
CCOC(=O)CSc1nc2cc3c(cc2cc1C)OCO3	-2.6	2	0	7	-10	10	3	1.6	-0.2	i
COc1ccc(Nc2nc(N)c([N+](=O)[O-])c(N3CCCC3)n2)cc1	18	-2	11	-1	-13	-21*	-3.7*	-3.7*	7.4	i
CC1(C)C(=O)Nc2ccccc2N1C(=O)COC(=O)C12CC3CC(CC(O)(C3)C1)C2	·	-1	-5	-1	7	·	·	·	-3.4	·
O=C1c2ccccc2C(O)(c2ccccc2)N1c1ccncc1 (centres undefined)	0.8	·	-8	1	22	1	3	2.6	0.5	i
Cc1cc(C)n2nc(C(=O)N/N=C/c3cccs3)nc2n1	-0.1	·	7	-4	-10	4	17	3.9	0.5	i
CCN(CC)S(=O)(=O)c1ccc(C(=O)OCC(=O)N2CCN(C(=O)c3ccco3)CC2)cc1	·	3	-17	-1	-12	·	·	·	6.5	·
CCC1CCCN1Cn1cnc2c([nH]c3ccc(C)cc32)c1=O (centres undefined)	·	-1	-2	1	-7	·	·	·	0.0	·
Cc1ccc(N2C(=S)NC3c4cc(Cl)ccc4OC2(C)C3C(=O)N(C)C)cc1 (centres undefined)	?	-37	-1	-7	-15	-22*	-9.1*	1.1*	4.4	i
COc1cccc(NC(=O)C2CSC3(C)CCC(=O)N23)c1 (centres undefined)	-1.3	23	-2	-1	0	2	8	-2.3	0.8	·
CC1=N/C(=C\c2ccccc2Cl)C(=O)O1	-2.5	0	5	·	-13	17	7	4.1	-1.7	i
O=C1CC(N2CCC(C(=O)N3CCCCC3)CC2)C(=O)N1 (centres undefined)	·	·	-5	-6	-1	·	·	·	0.3	·
CCNc1ccc(S(=O)(=O)N(C)C)cc1NCC(=O)Nc1ccccc1F	·	99*	-31	-3	-8	·	·	·	3.8	·
Cc1ccc(S(=O)(=O)N2CCN(C(=O)c3cc(S(=O)(=O)N(C)C)ccc3N3CCCC3)CC2)cc1	-5.9	-3	2	2	36	-5	-5	1.4	6.1	i
O=C(c1cccc(F)c1)N(Cc1nc2ccccc2c(=O)[nH]1)C1CCCC1	-6.5	-1	8	-7	0	-16	-26	-5.9	-1.1	i
CC(=O)c1csc(Nc2ccccc2Cl)n1	11	17	-5	2	4	4	0	2.9	4.7	i
Cc1ccc(CN2CCC(CO)(CC3CCCCO3)CC2)o1 (centres undefined)	-2.1	·	-28	-2	-5	20	17	1.9	-0.8	i
COc1ccc(-c2nc(CS(=O)(=O)CC(=O)Nc3ccc(Cl)cc3)c(C)o2)cc1	5.1	56	-9	0	35	-3	2	3.5	0.4	i
O=C(Nc1cccc(F)c1)c1ccc(CSc2ccccc2)o1	1.8	-2	9	-5	-23	-33	-34	-4.9	0.5	i

Records listed so far marked active in ALR H2O2 inh.
SMILES	MLL AF4-AF9 inh	ALR H2O2 inh	rRNA inh HTS	rRNA inh HTS OD600	rRNA inh HTS RFP	RanGTP-Impb inh
N#CC1=C(N)N(c2ccccc2)C(c2ccco2)C1(C#N)C#N (centres undefined)	·	94*	·	·	·	5.6
CCNc1ccc(S(=O)(=O)N(C)C)cc1NCC(=O)Nc1ccccc1F	·	99*	·	·	·	3.8

(further entries)
SMILES	MLL AF4-AF9 inh	ALR H2O2 inh	Calb FLC	Beta apoptosis	T cruzi inh	rRNA inh HTS	rRNA inh HTS OD600	rRNA inh HTS RFP	RanGTP-Impb inh	FGF22 binding
CCSc1nnc(NC(=O)C2CC=CCC2C(=O)O)s1 (centres undefined)	·	-5	-7	-1	-12	·	·	·	1.1	·
CCOC(=O)C1CCN(C(=O)COC(=O)c2c(C)c(CC)nc3ccccc23)CC1	-0.9	0	·	-3	·	·	·	·	·	i
Cc1ccc2c(c1)N(C(=O)CCC(=O)N1CCC(C(N)=O)CC1)CCO2	2.2	-6	1	-6	5	1	18	-9.2	-0.6	i
O=C(O)C[C@H]1c2ccccc2S(=O)(=O)N1C1CCCC1	2.6	-1	-8	-1	-14	2	8	-1.1	1.2	i
NC(=O)Cn1c(S(=O)(=O)Cc2ccccc2)nc2ccccc21	·	-1	2	-10	-13	·	·	·	-1.4	·
O=C(c1cccc(S(=O)(=O)NCCOc2ccccc2)c1)N1CCN(c2ncccn2)CC1	·	-3	22	9	-1	·	·	·	1.8	·
Cc1oc(-c2ccccc2)nc1C(=O)OCC(=O)NC(=O)NCC(C)C	·	-9	-10	-5	-16	·	·	·	5.0	·
CC(=O)Nc1c(C(=O)N2CCN(c3ccccn3)CC2)cnn1-c1ccc(C)cc1	·	-1	5	5	0	·	·	·	-3.3	·
CCCN(CC1CC1)c1nc(C)nc(Nc2c(Cl)cc(Cl)cc2Cl)c1Cl	-8.5	1	-5	·	41	·	·	·	?	i
CC(C)[C@H](CO)Nc1nc(Nc2ccc(Cl)c(C(=O)O)c2)c2ncn(C(C)C)c2n1	6.6	9	10	-3	-20	0	-5	-1.6	4.1	i
COc1cccc(/C=N\NC(=O)c2sc(N)nc2C)c1OC	·	11	7	-1	-8	·	·	·	0.6	·
COc1ccc(NC(=O)CN(c2ccc(C)cc2)S(C)(=O)=O)c(OC)c1	·	-15	2	4	3	·	·	·	-1.8	·
O=C(CSc1nnc(-c2c[nH]c3ccccc23)o1)c1ccccc1	·	0	-12	-2	9	·	·	·	0.4	·
CC(C)(C)OC(=O)N[C@@H](Cc1ccccc1)C(=O)N1CCC(C(=O)N[C@@H](CCC(N)=O)C(=O)O)CC1	-0.7	-11	3	-5	-10	7	12	0.8	-2.6	i
NNC(=O)CS(=O)(=O)c1ccc(Cl)cc1	-6.0	3	5	1	-9	7	12	3.2	0.8	i
O=C(O)c1cnc(-c2ccccc2)nc1Oc1ccccc1	-1.7	4	-1	0	-14	-1	-6	1.5	?	i
O=S(=O)(c1ccc(Cl)cc1)N1CCN(Cc2ccncc2)CC1	-2.4	2	-1	-5	3	-3	-5	-0.6	6.0	i
CCOCCCNCc1ccc(OC)cc1	·	-7	1	-10	17	·	·	·	4.3	·
CCCCn1c(N)c(N(CC(C)C)C(=O)CSCc2c(C)noc2C)c(=O)[nH]c1=O	-15	·	-3	-7	0	5	9	-2.3	-1.3	i
COc1cc(NC(=O)CN2C(=O)NC3(CCOc4ccccc43)C2=O)cc(OC)c1 (centres undefined)	6.3	-7	·	-1	·	3	-3	1.7	·	i
COc1ccc(OCc2cc(C(=O)N3CCN(C4CCCC4)CC3)no2)c(Cl)c1	4.3	-2	7	0	38	-29*	-23*	-2.7*	-2.8	i
Cc1nnc(N/N=C/c2ccc(O)c([N+](=O)[O-])c2)[nH]c1=O	·	50	5	-11	-3	·	·	·	0.0	·
COc1cccc(/C=C/C(=O)Nc2ccc3nc4n(c(=O)c3c2)CCCC4)c1OC	0.7	21	66	·	7	-23*	-10*	4.2*	1.4	i
CCOC(=O)c1sc(NC(=O)CSc2nc(-c3ccco3)cc(C(F)(F)F)n2)c(C#N)c1C	4.3	-1	-12	-1	1	-2	-4	0.2	-0.6	i
FC(F)(F)c1nnc(-c2ccccc2)nc1Sc1ccccc1	·	·	0	5	16	·	·	·	-2.3	·
Other compounds follow:
SMILES	MLL AF4-AF9 inh	ALR H2O2 inh	Calb FLC	Beta apoptosis	T cruzi inh	rRNA inh HTS	rRNA inh HTS OD600	rRNA inh HTS RFP	RanGTP-Impb inh	FGF22 binding
O=C(c1cc(COc2cccc3cnccc23)on1)N1CCC(c2ccccc2Cl)C1 (centres undefined)	0.9	-72	4	44	63*	-13	-31	27	-0.4	i
COc1ccc(CNc2nc3nc(-c4ccccc4)cc(=O)n3[nH]2)cc1OC	·	-4	-10	2	-15	·	·	·	4.9	·
CCOC(=O)CN=C/C(C(=O)Nc1nccs1)=C(/C)O	-1.5	-14	0	-5	-6	8	18	5.5	-1.6	i
CCS(=O)(=O)Nc1ccc2c(c1)N(C(C)=O)c1ccccc1CC2	·	0	3	-1	-4	·	·	·	-4.1	·
O=C(O)c1ccc(Cl)c(S(=O)(=O)Nc2cccc(C(=O)Nc3cccc(C(F)(F)F)c3)c2)c1	-2.4	·	16	-6	-8	11	10	-5.3	-1.2	·
CCOc1ccc(CCNC(=O)Nc2ccccc2)cc1OCC	-24	-2	11	-4	-11	8	-7	1.9	-1.0	i
CNCc1c(OCc2ccccc2F)ccc2ccccc12	2.9	-10	0	4	16	-12	-12	-0.2	0.8	·
N#Cc1nc(-c2ccccc2Cl)oc1N1CCN(C(=O)c2ccco2)CC1	0.0	-8	2	·	6	0	12	-1.4	-2.3	i
COc1ccccc1-n1c(SCC(=O)N2CCCC2)nc2cccnc21	·	-4	-15	-1	-8	·	·	·	-2.0	·
O=C(N/C(=C/c1ccccc1Cl)C(=O)N1CCCCC1)c1ccco1	1.1	-2	12	9	7	-12	-15	-1.6	2.0	i
Cc1c(Cc2ccccc2)sc(NC(=O)Cc2ccccc2)c1C(N)=O	·	-8	0	-3	20	-18*	1.2*	-4.8*	-2.7	·
CCOC(=O)C1=C(CSc2nc3c(cc2C#N)CN(C)CC3)OC(N)=C(C#N)C1c1ccc(Cl)cc1 (centres undefined)	·	·	-4	-9	22	·	·	·	27*	·
Cc1ccc(-n2ncc(C(=O)NCC3CCN(C4CCCC4)C3)c2C2CCN(C(=O)OC(C)(C)C)CC2)cc1 (centres undefined)	7.5	-4	4	·	38	-1	0	-0.8	5.4	i
O=C1/C(=C/c2ccccc2)SC(=S)N1C1CCS(=O)(=O)C1 (centres undefined)	-2.3	0	0	4	6	12	11	3.4	-3.1	i
